# Assay outcomes deposited in PubChem by National Center for Advancing Translational Sciences (NCATS).
# HPGD inh: HPGD (human) dehydrogenase inhibition; purified HPGD, NADH fluorescence kinetic, PGE2 substrate; P15428; actives 4.3% (n = 150,000); Potency, µM, without a hit: at the highest dose activity change, negative = inhibition, usual class: inhibitors; active = well fitted inhibition curve with a large enough effect (not every such curve was filed as active); inconclusive = small, poorly fitted or top-dose-only effect, or another doubt; inactive = no such curve, though single readings can be large or run the other way;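 also: top concentration of the series not given in the record; plate controls included wells without enzyme; inactives centre near -10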
# Target sequence (P15428 whole entry, looked up): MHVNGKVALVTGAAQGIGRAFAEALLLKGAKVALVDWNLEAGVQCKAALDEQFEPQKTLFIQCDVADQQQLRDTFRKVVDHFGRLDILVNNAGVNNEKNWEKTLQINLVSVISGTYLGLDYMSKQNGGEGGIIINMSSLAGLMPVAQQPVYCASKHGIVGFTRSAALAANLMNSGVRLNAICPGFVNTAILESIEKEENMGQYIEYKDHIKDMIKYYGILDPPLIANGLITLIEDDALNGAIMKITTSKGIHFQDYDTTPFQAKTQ
#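 20 nM HPGD preincubated 15 min at room temperature with compound in 50 mM Tris-HCl pH 8, 0.01% Tween 20. Started with 1 mM NAD+ and 30 uM prostaglandin E2; NADH fluorescence (360/450 nm) read 5 times over 30-s intervals, last minus first.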
# An asterisk follows results filed as active; ? = inconclusive; & = joins results of further samples. % is scaled to controls: 0 for no effect and ±100 for the full control effect; potency is read from the fitted curve at half-maximal effect. Some of the compounds tested; rates above refer to the full screens.
Molecule | HPGD inh
C(=Nc1ccc2c(c1)Cc1ccccc1-2)c1ccccn1 | -7%
COC(=O)COc1ccc(NC(=O)C2CCCO2)cc1 (centres undefined) | 16µM*
O=C(CSCc1ccc(Cl)cc1)N1CCCCC1 | 16µM*
CC1Oc2ccccc2N(CC(=O)c2cccc(Cl)c2)C1=O (centres undefined) | -14%
Cc1nn(Cc2ccc(Cl)cc2)c(C)c1NC(=O)CCCn1nc([N+](=O)[O-])c(Cl)c1C | -4%
COC(=O)c1ccccc1NC(=O)NCc1ccc2c(c1)OCO2 | -20%
COc1cc(OC)c2c(-c3cccc(-c4ccc(C#N)cc4)c3)cc(=O)oc2c1 | -15%
CCNCc1nc2cc(OC)c(OC)cc2c(=O)[nH]1 | -11%
COC(=O)c1ccc(N=C2S/C(=C\c3cc(C)n(-c4cccnc4)c3C)C(=O)N2C)cc1 | ?
CCN1C(=O)c2cccc3c(S(=O)(=O)Nc4nc(C)cs4)ccc1c23 | -21%
Cc1ccc2[nH]c(C(=O)O)c(-c3ccccc3)c2c1 | ?
O=C(CSC1=NCCN1)Nc1ccccc1 | -6%
CCc1[nH]c(=S)c(C#N)c2c1CCCC2 | 20µM*
O=C(Nc1ccc(N2CCN(C(=O)c3ccco3)CC2)cc1)c1ccccc1F | -30%
C=CCn1c(SCCN2CCCCC2)nc2c1c(=O)[nH]c(=O)n2C | -9%
Nc1nc(-c2ccccc2)c(-c2ccccc2)c(-c2nc(N)nc(-c3ccccc3)c2-c2ccccc2)n1 | -1%
COCCNC(=O)c1cc2cc(Br)cc(OC)c2oc1=O | -13%
Cc1nc(-c2cccc(S(=O)(=O)N3CC(C)OC(C)C3)c2)cs1 (centres undefined) | -7%
CCN(CC)CCN1C(=O)C(=O)/C(=C(/O)c2ccc(OC)c(OC)c2)C1c1ccccn1 (centres undefined) | -18%
O=S(=O)(c1ccccc1)N1CCN(c2ncccn2)CC1 | -7%
COc1ccc(Cn2cnc3sccc3c2=O)cc1 | -7%
COc1ccc(CCNC(=O)c2c(O)c3cccc4c3n(c2=O)CC4)cc1OC | -19%
C[C@@]12C=CC(=O)C=C1CC[C@H]1[C@H]3CC[C@](O)(C(=O)CO)[C@]3(C)CC(=O)[C@@H]12 | -2%
COc1cc(OC)nc(NC(=O)CS(=O)(=O)c2ccccc2)n1 | -3%
CCc1[nH]nc2c1C1(CCN(C(=O)c3ccccc3)CC1)C(C#N)=C(N)O2 | -7%
CCOC(=O)N1CCC(N(CCN(C)C)C(=S)Nc2cccc(Cl)c2C)CC1 | -7%
CCCCCOC(=O)CSc1nc2c(c(=O)[nH]c(=O)n2C)n1CCc1ccccc1 | 25µM*
Fc1ccc(-c2csc3nnc(SCc4cccnc4)n23)cc1 | -6%
CC#CCN1c2ccccc2[C@]23C[C@@H](C(=O)OC)N=C2NC(C(=O)OC)=C(C(=O)OC)[C@H]13 | -13%
COC(=O)CNC(=O)CN1C(=O)N(c2cccc(Cl)c2)C(N(O)C(=O)Nc2cccc(Cl)c2)C1(C)C (centres undefined) | -19%

# (cont.)
Molecule | HPGD inh
COc1ccc(CN2C3CCCC2CC(NC(=O)Nc2ccccc2C)C3)cc1 (centres undefined) | -10%
COc1cc(Br)cc(C=Nc2cccc(C(F)(F)F)c2)c1O | -3%
Cc1ccc(C(=O)OCC(=O)NCc2cccs2)cc1 | ?
Cc1cccc(NC2=NCC(=O)N2Cc2ccccc2)c1 | -10%
O=C(c1cc([N+](=O)[O-])ccc1N1CCOCC1)N1CCCC1 | -8%
COCCn1nnnc1C(c1ccccc1Cl)N1CCN(c2ccccc2OC)CC1 (centres undefined) | -3%
CC(C)(C)OC(=O)CN1C(=O)C(Sc2n[nH]c(-c3ccccc3)n2)CCc2ccccc21 (centres undefined) | -26%
COc1ccc(-c2nc(N=Nc3ccc(O)cc3)n[nH]2)cc1 | -9%
CNC(=O)CSc1nnc(-c2ccc(S(=O)(=O)N3CCCC3)cc2)n1-c1cccc(C)c1C | ?
O=C(O)C1C2CCC(C2)C1C(=O)NCCCn1ccnc1 (centres undefined) | -16%
O=C(Nc1cccnc1)c1cc(-c2ccc3c(c2)OCO3)on1 | ?
CCc1cccc(NC(=O)CS(=O)Cc2nc(-c3ccc(C)cc3)oc2C)c1 (centres undefined) | -13%
COC(C(=O)Nc1ccc(S(=O)(=O)N2CCCCC2)cc1)c1ccccc1 (centres undefined) | -14%
O=C(CSc1nnc(-c2ccccn2)n1Cc1ccccc1)N1CCCC1 | 28µM*
CN(CC(=O)Nc1ccc(Cl)c(Cl)c1)C(=O)C12CC3CC(CC(C3)C1)C2 | -12%
CC1=C(C(=O)Nc2ccccn2)C(c2ccc(F)cc2)n2ncnc2N1 (centres undefined) | -24%
COc1ccc(OC)c(-n2c(N)c(C(=O)NCC3CCCO3)c3nc4ccccc4nc32)c1 (centres undefined) | ?
Cc1ccc(Cn2c(=O)n(CCC(=O)NCc3ccc4c(c3)OCO4)c(=O)c3ccccc32)cc1 | -18%
O=C(Cn1cnc2ccccc2c1=O)c1c[nH]c2ccccc12 | -8%
C1CCC(n2nnnc2CN2CCCC2)CC1 | -5%
COC(=O)Nc1nnc(/C=C/c2ccc(OC)cc2)s1 | ?
Cc1oc(/N=C/c2ccc(Cl)cc2Cl)c(C#N)c1C | -5%
Cc1ccc(Nc2ncccc2C(=O)NCc2cccs2)c(C)c1 | -25%
COC(=O)CSC1=C(C#N)C(c2cccc(F)c2)CC(=O)N1 (centres undefined) | -1%
CCN(CC)S(=O)(=O)c1ccc(N(C)Cc2cccnc2)nc1 | -28%
O=C(c1csnn1)N1CCC2(CCCN(c3ccncc3)C2)CC1 | -12%
CC1(C(=O)NCCCNc2ncc(C(F)(F)F)cc2Cl)C=CCN1C(=O)c1ccccc1 (centres undefined) | -5%
COc1cccc(NC2=CC(=O)CC(C)(C)C2)c1 | -17%
O=C(c1ccncc1)N1CCC2(CCCN(c3cccc(-c4ccccc4)c3)C2)CC1 | -17%
Cc1cc(C)c(C#N)c(SCC(=O)C(C)(C)C)n1 | 32µM*

# Part of the list above in order of molecular weight, highest first:
Molecule | HPGD inh
CC1(C(=O)NCCCNc2ncc(C(F)(F)F)cc2Cl)C=CCN1C(=O)c1ccccc1 (centres undefined) | -5%
COc1ccc(CN2C3CCCC2CC(NC(=O)Nc2ccccc2C)C3)cc1 (centres undefined) | -10%
O=C(c1csnn1)N1CCC2(CCCN(c3ccncc3)C2)CC1 | -12%
O=C(c1cc([N+](=O)[O-])ccc1N1CCOCC1)N1CCCC1 | -8%
O=C(Cn1cnc2ccccc2c1=O)c1c[nH]c2ccccc12 | -8%
O=C(O)C1C2CCC(C2)C1C(=O)NCCCn1ccnc1 (centres undefined) | -16%
C1CCC(n2nnnc2CN2CCCC2)CC1 | -5%

# (more compounds)
Molecule | HPGD inh
CCCOC(=O)C1[C@H]2C(=O)N(Cc3ccco3)C[C@]23C=C[C@H]1O3 (some centres undefined) | -2%
Cc1c(C)n(C(=O)CN2CCC(C)CC2)c2ccccc12 | -5%
COc1cccc(NC(=O)CN2CCC(C)CC2)c1 | -19%
Cc1cc(CCN2CCC(=O)NC2=O)ccc1OC(C)C | -9%
Cc1c(Br)c([N+](=O)[O-])nn1CC(=O)NCc1cccs1 | -5%
Cc1cccc(-c2nnc(SCC#N)n2Cc2ccccc2)c1 | -8%
CN(C)c1ccc(C(=O)Nc2nnc(-c3ccc(Cl)cc3)o2)cc1 | ?
COc1cc(OC)cc(C(=O)Nc2ccc(-c3nc4ccccc4o3)c(O)c2)c1 | ?
COc1cc(NC(=O)C2CCCN2S(=O)(=O)c2cccc3cccnc23)cc(OC)c1OC (centres undefined) | -9%
COC(=O)C1=C(C(=O)OC)[C@@H]2N(Cc3ccccc3)c3ccccc3[C@@]23C[C@@H](C(=O)OC)N(C(=O)NCc2ccccc2)C3=C1 | -4%
O=C(NCc1ccccc1)OCCN1CCN(Cc2ccccc2)CCC1=O | -11%&3%
Fc1ccc(CSc2nc3ccccc3[nH]2)c2ccccc12 | ?
CCOc1ccccc1NC1c2ccccc2C(=O)N1Cc1ccco1 (centres undefined) | -2%
CCCCn1ccnc1C(=O)c1cccc(S(=O)(=O)N2c3ccccc3CC2C)c1 (centres undefined) | -8%
N#Cc1ccc(/C=N/NC(=O)c2cc(-c3cccs3)nc3ccccc23)cc1 | ?
Nc1ccc2oc(-c3ccccc3Cl)cc(=O)c2c1O | ?
Cc1ccc(OCC(=O)NC(=S)Nc2ccc3c4c(cccc24)CC3)cc1 | -12%
CC(=O)N1CCN(c2cc(N3CCc4ccccc4C3)c(F)cc2[N+](=O)[O-])CC1 | -6%
Cc1noc(/C=C/N(C)C)c1S(=O)(=O)N1CCCC(C(=O)NC2CCCCC2C)C1 (centres undefined) | -29%
Cc1sc2ncnc(OCC(=O)NCC3CCCO3)c2c1C (centres undefined) | 2%
CCOC(=O)N1CCN(c2c(NC3CCN(Cc4ccccc4)CC3)c(=O)c2=O)CC1 | -7%
COC(=O)c1c(O)ccc(Oc2ccccc2)c1C(=O)OC | -9%
Fc1ccc(CNC(=S)Nc2ccccc2Cl)cc1 | -26%
Cc1ccccc1NC(=O)C(NS(=O)(=O)c1ccc2c(c1)c(=O)n(C)c(=O)n2C)c1ccccc1 (centres undefined) | -7%
O=C(NC(NC(=S)Nc1c(Cl)cccc1Cl)C(Cl)(Cl)Cl)OCc1ccccc1 (centres undefined) | -13%
CCOC(=O)c1[nH]c2ccc(OCC)cc2c1NC(=O)CN1CCN(c2ccccc2)CC1 | ?
COc1ccc(NC(=O)C2CCCO2)cc1Cl (centres undefined) | 16µM*
O=C1N(CN2CCN(c3cccc(Cl)c3)CC2)c2ccccc2C12OCCCO2 | 4%
CCn1nc(C)c(NC(=O)CC23CC4CC(CC(C4)C2)C3)c1C | -7%
CCSc1ccc2nnc(-c3cccc(F)c3)n2n1 | ?

# Filtered by structure, the entries above with a nitro group on carbon (four)
Molecule | HPGD inh
Cc1nn(Cc2ccc(Cl)cc2)c(C)c1NC(=O)CCCn1nc([N+](=O)[O-])c(Cl)c1C | -4%
O=C(c1cc([N+](=O)[O-])ccc1N1CCOCC1)N1CCCC1 | -8%
Cc1c(Br)c([N+](=O)[O-])nn1CC(=O)NCc1cccs1 | -5%
CC(=O)N1CCN(c2cc(N3CCc4ccccc4C3)c(F)cc2[N+](=O)[O-])CC1 | -6%

# Next part:
Molecule | HPGD inh
Cc1ccc2nc(NCCCN3CCOCC3)c(C=NCCCN3CCOCC3)c(=O)n2c1 | -19%
COc1ccc(NS(=O)(=O)c2cc(S(C)(=O)=O)ccc2C)cc1 | -6%
COC(=O)c1[nH]c2cccc(OC)c2c1NC(=O)CN(C)CC1OCCO1 | ?
Cc1onc(-c2c(Cl)cccc2Cl)c1C(=O)NCc1cccs1 | -10%
O=C(c1cccc(C(F)(F)F)c1)N1CCCCCC1 | ?
c1ccc(OCCSc2nnnn2-c2ccccc2)cc1 | -17%
CC#CCCCC(=O)Nc1ccc(C(=O)O)cc1 | 1%
O=C(Oc1cccc(/C=N/Nc2nc(Nc3ccccc3)nc(N3CCOCC3)n2)c1)c1ccco1 | -15%
COc1ccc(C2CC(c3c(-c4ccccc4)c4cc(Cl)ccc4[nH]c3=O)=NN2S(C)(=O)=O)cc1 (centres undefined) | -7%
OCc1cn(-c2ccccc2)nc1-c1ccc(-c2nn(-c3ccccc3)cc2CO)cc1 | ?
O=c1cc(N2CCOCC2)[nH]c(=O)n1C1CCCCC1 | -5%
CC1=NN(C(=O)c2cccc(Cn3nc(C)c([N+](=O)[O-])c3C)c2)C(O)(C(F)(F)F)C1 (centres undefined) | -13%
C=C(C)C(=O)NC1=NN(c2ccccc2)C(=O)C1 | -2%
O=C(CC1CCCC1)Nc1nc2ccccc2[nH]1 | -4%
CC(C)Cn1cnc2c(N)nc3ccccc3c21 | -12%
CC(C)(C)S(=O)(=O)c1ccsc1C(=O)O | -1%
Cc1ccc(C(=O)CSc2nc3cccnc3n2C)cc1 | -17%
COc1ccc(OCC(=O)NCCCN2CCOCC2)cc1 | -9%
Cc1nc2ccc(F)cc2cc1C(=O)Nc1ccc(Cl)c(Cl)c1 | -4%
O=C(NCCc1c[nH]c2ccccc12)C(F)(F)C(F)F | -12%
N/C(=N\OC(=O)c1ccccc1[N+](=O)[O-])c1cccnc1 | -17%
COc1ccc(NC(=O)CCS(=O)(=O)c2ccc3c(c2)CCCN3C(C)=O)cc1 | -6%
Cc1ccccc1C(=O)N=c1sccn1C | -9%
Cc1ccc2[nH]c3nc(SCCN4CCOCC4)nnc3c2c1 | -16%
CN1CCN(CCC(=O)Nc2ccccc2Cl)CC1 | -20%
CC(=O)N(C(C)=O)S(=O)(=O)c1ccc(N=NN2CCCCC2)cc1 | -16%
COc1ccc(/C=N/NC(=O)CC(=O)NCCc2ccccc2)cc1OC | -21%
COc1ccc(C2CC(=O)Oc3c(C(C)C)ccc(C)c32)cc1 (centres undefined) | -10%
COC(=O)c1cc2ccsc2n1Cc1ccccc1F | -29%
Cn1c(CCCOc2ccc(Cl)cc2Cl)nnc1SCC(=O)Nc1nccs1 | -11%

# Other results:
Molecule | HPGD inh
COc1ccc(-c2nc3ccccc3c(=O)o2)cc1OC | ?
CSc1ccccc1NC(=S)Nc1ccccc1C(F)(F)F | -1%
Cc1ccc(C(CCN(Cc2ccccc2)C(=O)c2ccco2)c2ccco2)cc1 (centres undefined) | ?
CC(C)Oc1ccc(C(=O)N/N=C/c2ccc(-c3ccc(S(=O)(=O)Nc4ncccn4)cc3)o2)cc1 | ?
